# High-throughput results (PubChem BioAssay)
# miR-21 FLuc = miR-21 reporter, rising signal | HeLa miR-21 FLuc reporter, luciferase, 48 h | 340,000 tested, under 10 active | Potency, µM (series often up to 38.3 µM), without a hit: at the top dose reporter change, positive = more light; active = well fitted rising curve with a large enough effect; inconclusive = small, poorly fitted or top-dose-only effect; inactive = no such curve, though single readings can be large or run the other way;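 also: % of control where 0% means no effect; miR-21 action dims this reporter so a rising signal means less miR-21 action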
#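 HeLa cells endogenously expressing miR-21, stably carrying CMV-driven firefly luciferase with a downstream miR-21 binding site, 2000 cells/well. Titrations up to approximately 40 uM, 48 hours; luciferase luminescence read.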
# * hit, by the source's call; ? = inconclusive. This is a subset; count on the stated rates, not on these rows.
SMILES,miR-21 FLuc
CC1=C(C(=O)OC2CCCC2)C(c2ccc(Cl)cc2)CC(=O)N1 (centres undefined),12%
COc1ccccc1NC(=O)C1CCN(S(=O)(=O)c2ccc3c(c2)oc(=O)n3C)CC1,-4%
CCN(Cc1ccccc1)C(=O)c1nc(-c2cccc(F)c2)n2c1CCCCC2,?
CCOC(=O)Cn1c(=O)n(-c2ccccc2OC)c2nc(-c3ccc(C(C)C)cc3)nc(C(N)=O)c21,-4%
COc1ccc(NC(=O)Cn2c(=O)oc3cc(S(=O)(=O)NC(C)C)ccc32)cc1OC,-5%
CCOC(=O)c1c(NC(=O)CSc2cn(CCNC(=O)c3ccccc3F)c3ccccc23)sc2c1CCCC2,20%
CCn1c(CNC(=O)c2ccc(OC)cc2)nnc1SCC(=O)Nc1cccc(C)c1,-7%
Cc1ccc(NC(=O)C(=O)NCC2(c3ccccc3)CCCC2)cc1C,4%
COc1ccc(Cn2c(=O)[nH]c3cc(C(=O)N4CCN(c5cccc(Cl)c5)CC4)ccc3c2=O)cc1,3%
O=C(Nc1cc(-c2cccc(Cl)c2)nn1-c1ccccc1)c1ccccc1F,-1%
COc1ccc(CCN2C(=O)N(c3ccc(C)cc3)C(=O)C2CC(=O)Nc2ccc(OC)cc2)cc1 (centres undefined),6%
COc1ccc(C2C=C(c3ccccc3)Nc3nc(NS(=O)(=O)c4ccc(Cl)cc4)nn32)cc1 (centres undefined),-5%
CC(=O)N(Cc1cccnc1)c1nc2c(C)c(C)ccc2s1,-12%
COc1ccc(CCn2c(=O)c3cccnc3n(CC(=O)Nc3ccc(C)cc3C)c2=O)cc1OC,9%
CCC(=O)N1CCc2cc(Br)cc(S(=O)(=O)N3CCCC(C(=O)NCc4ccc(C)cc4)C3)c21 (centres undefined),-6%
O=C(Nc1nc2n(n1)C(c1ccc(F)cc1)C=C(c1ccccc1)N2)c1ccco1 (centres undefined),8%
CCC(C(=O)Nc1ccccc1OC)n1c(C(=O)OC)cc2sc(Cl)cc21 (centres undefined),22%
Cc1nc2c(C(=O)NCc3ccccc3Cl)c[nH]n2c(=O)c1Cc1cccc(Cl)c1,24%
COc1ccc(Nc2oc(/C=C/c3ccc(OC)c(OC)c3)nc2C#N)cc1,-13%
Cc1ccc(NC(=O)CSc2nnc(N)s2)c(C)c1,-2%
COc1ccc(C2C=C(c3ccc(Br)cc3)Nc3nnnn32)c(OC)c1 (centres undefined),-40%
Cc1ccc(CN(Cc2ccco2)C(=O)c2oc3ccc(C)cc3c2C)cc1,-1%
Cc1oc2ncnc(N3CCCCC3)c2c1C(=O)Nc1cccc(Cl)c1C,?
CCN(C(=O)c1oc2ccc(S(=O)(=O)N3CCCCCC3)cc2c1C)c1ccccc1,?
CC(=O)Nc1ccc(NC(=O)c2c(C)nn(-c3ccccc3)c2-n2cccc2)cc1,11%

# A run of entries from the list above, for reference:
SMILES,miR-21 FLuc
CC1=C(C(=O)OC2CCCC2)C(c2ccc(Cl)cc2)CC(=O)N1 (centres undefined),12%
COc1ccccc1NC(=O)C1CCN(S(=O)(=O)c2ccc3c(c2)oc(=O)n3C)CC1,-4%
CCN(Cc1ccccc1)C(=O)c1nc(-c2cccc(F)c2)n2c1CCCCC2,?
CCOC(=O)Cn1c(=O)n(-c2ccccc2OC)c2nc(-c3ccc(C(C)C)cc3)nc(C(N)=O)c21,-4%
COc1ccc(NC(=O)Cn2c(=O)oc3cc(S(=O)(=O)NC(C)C)ccc32)cc1OC,-5%
CCOC(=O)c1c(NC(=O)CSc2cn(CCNC(=O)c3ccccc3F)c3ccccc23)sc2c1CCCC2,20%
CCn1c(CNC(=O)c2ccc(OC)cc2)nnc1SCC(=O)Nc1cccc(C)c1,-7%
Cc1ccc(NC(=O)C(=O)NCC2(c3ccccc3)CCCC2)cc1C,4%
COc1ccc(Cn2c(=O)[nH]c3cc(C(=O)N4CCN(c5cccc(Cl)c5)CC4)ccc3c2=O)cc1,3%
O=C(Nc1cc(-c2cccc(Cl)c2)nn1-c1ccccc1)c1ccccc1F,-1%
COc1ccc(CCN2C(=O)N(c3ccc(C)cc3)C(=O)C2CC(=O)Nc2ccc(OC)cc2)cc1 (centres undefined),6%
COc1ccc(C2C=C(c3ccccc3)Nc3nc(NS(=O)(=O)c4ccc(Cl)cc4)nn32)cc1 (centres undefined),-5%
CC(=O)N(Cc1cccnc1)c1nc2c(C)c(C)ccc2s1,-12%
COc1ccc(CCn2c(=O)c3cccnc3n(CC(=O)Nc3ccc(C)cc3C)c2=O)cc1OC,9%

# Continuation.
SMILES,miR-21 FLuc
COc1ccc(CNC(=O)c2ccc(-c3nc(CSc4ccccc4)c(C)o3)cc2)cc1OC,2%
Cc1ccc(CN2C(=O)c3ccccc3Sc3ccc(C(=O)NC4CCCCC4)cc32)cc1,1%
Cc1c(Cl)cccc1NC(=O)c1ccc2c(c1)nnn2C1CCCC1,14%
CCOC(=O)c1cccc2c1N[C@@H](c1ccc(F)cc1)[C@H]1CC=C[C@@H]21,0%
COCCNc1sc(S(=O)(=O)c2ccc(C)cc2)nc1S(=O)(=O)c1ccc(C)cc1,0%
Cc1ccc(-c2nc3c4c(-c5ccccc5)c(-c5ccccc5)oc4ncn3n2)cc1,-1%
O=c1c2cc3c(cc2n(Cc2ccc(Cl)cc2)c(=O)n1Cc1nc(-c2ccccc2)no1)OCO3,-2%
CC1=C(c2ccc(C)c(C)c2)S(=O)(=O)N=C1N1CCC(C(=O)NCc2ccccc2C)CC1,1%
Cc1ccc(-n2nnnc2C2CCN(S(=O)(=O)c3ccc(OC(F)(F)F)cc3)CC2)cc1,9%
Cc1ccc(C(=O)N2c3ncnn3C3(CCCCC3)[C@@H]3CCCC[C@@H]32)cc1,13%
COc1ccc(NC(=O)CCN2CCN(CCO)CC2)cc1,0%
CCOC(=O)c1sc(NC(=O)C2c3ccccc3Oc3ccccc32)c(C#N)c1C,0%
CCc1cccc(NC(=O)C2CCC(CNS(=O)(=O)c3csc(C(N)=O)c3)CC2)c1 (centres undefined),-3%
CCOC(=O)c1ccc2nc(C)cc(Nc3ccc(OC(C)C)cc3)c2c1,?
COc1ccc(NC(=O)C2=C(C)Nc3c(C(=O)Nc4ccc(C)cc4)cnn3C2c2cc(OC)ccc2OC)cc1 (centres undefined),5%
O=C(NCc1ccc(Cl)cc1Cl)c1cccc(N2CCCS2(=O)=O)c1,4%
CCOCCCNC(=O)C1CCN(C(=O)c2cc3sccc3n2C)CC1,-2%
CCOC(=O)N1CCC(NC(=O)c2ccc3c(c2)N(Cc2ccccc2C)C(=O)c2ccccc2S3=O)CC1 (centres undefined),-5%
COc1ccc2[nH]c(C)c(CCNS(=O)(=O)c3cc(F)ccc3OC)c2c1,-1%
O=C(NCc1cccnc1)c1nn(-c2ccccc2F)nc1CO,17%
CCOC(=O)c1ccc(NC(=O)c2c(NCc3cccc(OC)c3OC)sc3c2CCC3)cc1,-3%
Cc1ccc(C)c(N2CCN(C(=O)CN3C(=O)COc4ccc(S(=O)(=O)N5CCOCC5)cc43)CC2)c1,-3%
Cc1c(C(=O)NCc2ccccc2Cl)sc2nc3n(c(=O)c12)CCCCC3,-10%
O=C(Nc1cccc(Cl)c1)C(Cc1ccccc1)n1cccc1 (centres undefined),22%
O=C(CSc1nc(-c2ccco2)nc2cc(=O)[nH]n12)Nc1ccc(F)cc1,14%

# Additional results:
SMILES,miR-21 FLuc
O=C(CSc1nc2c(c(=O)[nH]1)CN(Cc1ccc3c(c1)OCO3)CC2)Nc1ccc(F)cc1,-2%
N#Cc1c(-n2ncnc2-c2ccccc2C(F)(F)F)sc2c1CCCCC2,-5%
COc1cccc(CNC(=O)c2cnc(N3CCCC3)nc2C)c1,2%
Cc1ccc2c(c1)c1c(c(=O)n(-c3cccc(Cl)c3)c(=O)n1CC(=O)c1ccc(Cl)cc1)n2C,1%
Cc1sc2c(c1C)c(=O)n(-c1cccc(C(F)(F)F)c1)c(=O)n2Cc1ccccc1C#N,-6%
Cc1ccc(OCCSc2nc3ccccc3n2CC(=O)N2CCCCC2)c(C)c1,1%
O=C(c1ccc2c(Cl)c3c(nc2c1)CCCC3)N1CCN(c2cccc(C(F)(F)F)c2)CC1,1%
O=C(Cn1c(=O)oc2cc(S(=O)(=O)NCc3ccccc3)ccc21)Nc1ccc(F)c(Cl)c1,-2%
COc1cccc(C(=O)Nc2ccccc2C(=O)OCc2cc(=O)n3nc(C4CC4)sc3n2)c1,0%
Cc1coc2cc3oc(=O)c(CC(=O)NCCc4ccccc4F)c(C)c3cc12,10%
Cc1nc(C)c(-c2ccc(SCC(=O)Nc3ccccc3F)nn2)s1,?
COc1ccc(OC)c(NC(=O)C2CCN(S(=O)(=O)c3ccc4c(c3)CCCC(=O)N4)CC2)c1,-1%
CCCCNc1nc2c(S(=O)(=O)c3ccc(Br)cc3)nnn2c2ccsc12,-1%
N#Cc1ccc(NS(=O)(=O)c2ccc(-c3cnc(C4CC4)o3)cc2)cc1,-10%
COc1ccc(-n2c(SCC(=O)c3ccc(Cl)cc3)nc3c([nH]c4ccccc43)c2=O)cc1,-3%
Cc1ccc(/C=C/c2onc(C)c2S(=O)(=O)N2CCC(C(=O)N3CCC(N(C)C(C)C)CC3)CC2)cc1,?
CCOc1ccc(-c2nc(SCC(=O)Nc3cc(F)ccc3F)n3[nH]c(=O)cc3n2)cc1,-2%
Cc1cccc(NC(=O)CSc2nc(C3CCCC3)nc3c2c(=O)n(C)c(=O)n3C)c1C,-12%
CCC12CN3CC(CC)(CN(C1)C3c1cc(Br)ccc1OC)C2=O (centres undefined),9%
COc1cc(OC)cc(-c2cc3nc(C)c(CCC(=O)NCc4ccc(Cl)cc4)c(C)n3n2)c1,?
CCc1ccc(N(CC)C(=O)c2cn(C)c(=O)c3cc(OC)c(OC)cc23)cc1,7%
Cn1c(=O)c2c(c3ccccc31)OC(=O)CC2c1cccc(Cl)c1 (centres undefined),28%
COc1ccc(-c2noc(CSc3nnc(Cc4ccccc4)n3-c3cccc(C)c3)n2)cc1,17%
COC(=O)c1ccc(OC)c(Cn2c(=O)n(-c3cccc(Cl)c3)c(=O)c3c2c2cc(C)ccc2n3C)c1,5%
CCOC(=O)c1c(NC(=O)c2cc3ccccc3c(=O)o2)sc2c1CCC(C(C)(C)C)C2 (centres undefined),-21%

# Next part
SMILES,miR-21 FLuc
COc1cccc(CNC(=O)Cn2c(=O)ccc3cc(S(=O)(=O)N4CCC(C)CC4)ccc32)c1,16%
Cc1cc(C)cc(Nc2cc(C(=O)NC3CCCCC3)c3ccccc3n2)c1,-2%
CCOC(=O)C1=C(CN2CCC(C)CC2)NC(=O)NC1c1ccc(OC(C)C)cc1 (centres undefined),7%
CN(C(=O)CC(=O)Nc1ccc2nc3n(c(=O)c2c1)CCCCC3)c1ccccc1F,-6%
COc1cccc(CNC(=O)c2nnc(Cc3ccc(Cl)cc3)o2)c1,-8%
CCOC(=O)c1cc(-c2ccccc2)n(CCC(=O)Nc2ccc(Cl)c(C(F)(F)F)c2)c1C,?
COc1ccccc1N1CCN(C(=O)Cn2ncc3c(=O)oc4ccccc4c32)CC1,0%
COc1ccc(N2CCN(c3oc(/C=C/c4cccc(OC)c4)nc3C#N)CC2)cc1,9%
O=C(Cn1ccc2cc(S(=O)(=O)N3CCCCC3)ccc21)NCCc1ccccc1Cl,9%
COc1ccc(Cl)cc1-n1c(/C=C/c2cccc3ccccc23)nc2ccccc2c1=O,5%
CCCC(=O)Nc1cc2nn(-c3ccc(OC)cc3)nc2cc1C,-36%
COc1ccc(-c2cn3c(n2)sc2cc(C(=O)NCc4cccs4)ccc23)cc1,-2%
O=C(C1CCN(S(=O)(=O)Cc2ccccc2)CC1)N1CCN(c2ccccc2)CC1,5%
COc1cc2c(-c3cc(Br)ccc3O)nc3c(c(C)nn3-c3ccccc3)c2cc1OC,-6%
Cc1ccc(Cl)cc1N1CCN(C(=O)C2CCN(Cc3nc(-c4cccc(Cl)c4)oc3C)CC2)CC1,13%
Cc1ccc(Cl)cc1N1CCN(C(=O)CSc2cc(=O)n(C)c3ccccc23)CC1,15%
Cc1ccc(NC(=O)c2oc3ccc(S(=O)(=O)N4CCCCC4)cc3c2C)c(C)c1,1%
CCOC(=O)c1c(C)oc2ncnc(N3CCN(c4cccc(Cl)c4)CC3)c12,-1%
Cc1cccc(C)c1NC(=O)c1ccc2c(c1)nnn2C1CCCC1,22%
O=C(COc1ccccc1Cl)N(Cc1cccc(F)c1)C1CCS(=O)(=O)C1 (centres undefined),-8%
COc1cc(NC(=O)C2CCN(S(=O)(=O)c3c(C)noc3/C=C/c3c(C)cc(C)cc3C)CC2)cc(OC)c1,-8%
Cc1ccc(CNC(=O)Cn2ccn(-c3ccc(C)c(C)c3)c(=O)c2=O)cc1,0%
COc1ccc(-c2noc(N3CCN(c4cccc(Cl)c4)CC3)n2)cc1OC,2%
Cc1cccn2cc(-c3cccc(NC(=O)C(C)C)c3)nc12,-30%
CC(C)NC(=O)c1cnc2sc(N3CCCCCC3)nn2c1=O,-2%

# The list goes on.
SMILES,miR-21 FLuc
Cc1noc(-c2ccc(N3CCCCC3C)c([N+](=O)[O-])c2)n1 (centres undefined),15%
COc1ccc(-n2c(Cc3ccccc3)nnc2SCc2nc(-c3ccccc3C)no2)cc1,-1%
CC1Cc2cc(S(=O)(=O)CCC(=O)Nc3ccc(F)c(Cl)c3)ccc2N1C(=O)C1CC1 (centres undefined),8%
CC(=O)N1c2ccccc2CC1C(=O)N1CCN(c2cc(Cl)ccc2C)CC1 (centres undefined),7%
CCOC(=O)C1CCCN(C(=O)c2c(C)nn(-c3ccc(F)cc3)c2-n2cccc2)C1 (centres undefined),12%
O=C(c1ccccc1)n1nc(-c2ccco2)nc1NCc1cccs1,-16%
Cc1ccccc1OCCn1c(=N)n(C(C)C)c2ccccc21,16%
COc1ccc(NC(=O)Cc2noc3ccc(C)cc23)cc1Cl,22%
CCCCc1nn2c(=O)cc(COC(=O)c3ccccc3C)nc2s1,-46%
